Assay outcomes deposited in PubChem by National Center for Advancing Translational Sciences (NCATS).
VDR inh: blocks the human vitamin D receptor | P11473 | VDR-SRC2-3 peptide fluorescence polarization, 2 h | Potency, µM, for the others: max response, negative = inhibition, usual class: inhibitors | actives 0.93% (n = 400,000) | AID 504847; active = well fitted inhibition curve with a large enough effect; inconclusive = small, poorly fitted or top-dose-only effect, or another doubt; inactive = no such curve, though single readings can be large or run the other way; also: series mostly up to about 120 µM
Target sequence (P11473 whole entry, looked up): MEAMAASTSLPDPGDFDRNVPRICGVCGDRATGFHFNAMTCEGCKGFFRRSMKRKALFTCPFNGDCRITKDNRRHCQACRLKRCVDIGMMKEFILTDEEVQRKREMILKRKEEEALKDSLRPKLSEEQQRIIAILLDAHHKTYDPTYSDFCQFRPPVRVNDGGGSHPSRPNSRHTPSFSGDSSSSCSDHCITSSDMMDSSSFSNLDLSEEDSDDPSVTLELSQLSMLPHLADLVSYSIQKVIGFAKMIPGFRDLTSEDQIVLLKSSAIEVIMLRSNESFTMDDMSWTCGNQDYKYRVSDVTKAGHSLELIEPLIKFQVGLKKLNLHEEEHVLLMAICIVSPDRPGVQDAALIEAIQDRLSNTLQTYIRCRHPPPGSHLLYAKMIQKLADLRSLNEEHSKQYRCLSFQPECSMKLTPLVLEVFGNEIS
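Inhibition of the VDR/SRC2-3 peptide interaction is quantified by fluorescence polarization. Compounds (23 nl, pintool) incubate with the reagents for 2 hours at ambient room temperature.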
The depositor's hits bear a star; u = inconclusive; & = joins results of further samples. % is scaled to controls: 0 for no effect and ±100 for the full control effect; potency is read from the fitted curve at half-maximal effect. Some of the compounds tested; the hit share may differ from the screen's.

SMILES	VDR inh
Cc1oc(-c2cccc(Cl)c2)nc1Cn1c(SCc2ccccc2F)nc2ccncc21	7%
Cc1nn(CC(=O)NCCc2ccccc2)c(=O)c2c1sc1ccccc12	19%
CCNC(=O)/C=C/c1cccc(Br)c1	-11%
CC(=O)[C@H]1CC[C@H]2[C@@H]3C[C@H](C)C4=CC(=O)CC[C@]4(C)[C@H]3[C@@H](O)C[C@]12C	u
C=C1c2cccc(O)c2C(=O)C2C(=O)[C@]3(O)C(=O)C(C(N)=O)C(=O)[C@@H](N(C)C)[C@@H]3[C@@H](O)[C@H]12 (some centres not stated)	-24%
O=c1cc[nH]c(=O)[nH]1	-14%&-1%
CCCOC(=O)c1ccccc1	8%&3%
Nc1ccc(C(=O)Nc2ccccc2N)cc1	-4%&0%
CCCC(=O)O	3%
C/C=C/C=N\NC(=O)c1ccncc1	4%
COc1ccc(-c2cc(=O)c3c(O)cc(O[C@H]4OC(COC5OC(C)C(O)C(O)[C@H]5O)C(O)C(O)C4O)cc3o2)cc1O (some centres not stated)	-7%
Cc1onc(-c2ccccc2Cl)c1C(=O)N[C@@H]1C(=O)N2[C@@H]1SC(C)(C)[C@@H]2C(=O)O	3%&-12%
CCOC(=O)c1cccc(N)c1	-3%
O=C(O)[C@@H]1[C@H]2C[C@H]3c4[nH]c5ccccc5c4CCN3C[C@@H]2CC[C@@H]1O	-30%
O=C(O)CN1C(=O)c2cccc3cccc(c23)C1=O	2%&3%
CC1(C)OC2CC(=O)OCC23C1CC(=O)C1(C)C3CC[C@@]2(C)[C@H](c3ccoc3)OC(=O)C3OC312 (some centres not stated)	-4%
C[C@]12CC[C@H]3[C@@H](CCC4=CC(=O)CC[C@@]43C)[C@@H]1CC[C@@H]2C(=O)CO	-24%
Nc1cc(-c2ccncc2)c[nH]c1=O	20µM*
CCN(CC)C[C@@H]1CCCCN1CC(=O)N1c2ccccc2C(=O)Nc2cccnc21	4%
CC[C@]1(O)CC2CN(CCc3c([nH]c4ccccc34)[C@@](C(=O)OC)(c3cc4c(cc3OC)N(C)[C@H]3[C@@](O)(C(=O)OC)[C@H](OC(C)=O)[C@]5(CC)C=CCN6CC[C@]43[C@@H]65)C2)C1 (some centres not stated)	u
CN(C)CC/C=C1\c2ccccc2COc2ccc(CC(=O)O)cc21	0%
NS(=O)(=O)c1cc2c(cc1C(F)(F)F)NC(Cc1ccccc1)NS2(=O)=O (configuration not stated)	3%
CC(C)=CC(=O)O[C@@H]1Cc2cc3ccc(=O)oc3cc2OC1(C)C	-5%
CCCCCC(=O)O[C@@]1(C(C)=O)CCC2C3CCC4=CC(=O)CC[C@@]4(C)C3CC[C@]21C (some centres not stated)	u

Some of the entries so far, with bars between the fields.
mol | VDR inh
CCNC(=O)/C=C/c1cccc(Br)c1 | -11%
CC(=O)[C@H]1CC[C@H]2[C@@H]3C[C@H](C)C4=CC(=O)CC[C@]4(C)[C@H]3[C@@H](O)C[C@]12C | u
C=C1c2cccc(O)c2C(=O)C2C(=O)[C@]3(O)C(=O)C(C(N)=O)C(=O)[C@@H](N(C)C)[C@@H]3[C@@H](O)[C@H]12 (some centres not stated) | -24%
O=c1cc[nH]c(=O)[nH]1 | -14%&-1%
CCCOC(=O)c1ccccc1 | 8%&3%
Nc1ccc(C(=O)Nc2ccccc2N)cc1 | -4%&0%
CCCC(=O)O | 3%
C/C=C/C=N\NC(=O)c1ccncc1 | 4%
COc1ccc(-c2cc(=O)c3c(O)cc(O[C@H]4OC(COC5OC(C)C(O)C(O)[C@H]5O)C(O)C(O)C4O)cc3o2)cc1O (some centres not stated) | -7%
Cc1onc(-c2ccccc2Cl)c1C(=O)N[C@@H]1C(=O)N2[C@@H]1SC(C)(C)[C@@H]2C(=O)O | 3%&-12%
CCOC(=O)c1cccc(N)c1 | -3%
O=C(O)[C@@H]1[C@H]2C[C@H]3c4[nH]c5ccccc5c4CCN3C[C@@H]2CC[C@@H]1O | -30%
O=C(O)CN1C(=O)c2cccc3cccc(c23)C1=O | 2%&3%
CC1(C)OC2CC(=O)OCC23C1CC(=O)C1(C)C3CC[C@@]2(C)[C@H](c3ccoc3)OC(=O)C3OC312 (some centres not stated) | -4%
C[C@]12CC[C@H]3[C@@H](CCC4=CC(=O)CC[C@@]43C)[C@@H]1CC[C@@H]2C(=O)CO | -24%
Nc1cc(-c2ccncc2)c[nH]c1=O | 20µM*
CCN(CC)C[C@@H]1CCCCN1CC(=O)N1c2ccccc2C(=O)Nc2cccnc21 | 4%
CC[C@]1(O)CC2CN(CCc3c([nH]c4ccccc34)[C@@](C(=O)OC)(c3cc4c(cc3OC)N(C)[C@H]3[C@@](O)(C(=O)OC)[C@H](OC(C)=O)[C@]5(CC)C=CCN6CC[C@]43[C@@H]65)C2)C1 (some centres not stated) | u
CN(C)CC/C=C1\c2ccccc2COc2ccc(CC(=O)O)cc21 | 0%

Next part:
SMILES	VDR inh
COc1nc(C)nc(Cl)c1NC1=NCCN1	17%&-15%&-2%&-2%
CC1CCC(C(C)C)C(OC(=O)c2ccccc2O)C1 (configuration not stated)	3%
NC(=O)n1c(O)c(C(=O)c2cccs2)c2cc(Cl)ccc21	45µM*
COc1cc2nc(N3CCN(C(=O)C4COc5ccccc5O4)CC3)nc(N)c2cc1OC (configuration not stated)	-2%&-11%
CC1(C)O[C@H]2CC(=O)OCC23[C@H]2CC[C@@]4(C)[C@H](c5ccoc5)OC(=O)[C@H]5O[C@]54[C@]2(C)C(=O)C[C@@H]13 (some centres not stated)	2%
CC[C@]1(O)C[C@@H]2CN(CCc3c([nH]c4ccccc34)[C@@](C(=O)OC)(c3cc4c(cc3OC)N(C)C3[C@]45CCN4CC=C[C@](CC)(C45)[C@@H](OC(C)=O)[C@]3(O)C(=O)OC)C2)C1 (some centres not stated)	16%
O=C1NC(=O)[C@@]2(CCOc3ccc(F)cc32)N1	-3%
CCOC(=O)C1(CCOc2ccccc2)CCN(Cc2ccc(O)c(Cl)c2)CC1	-10%
CCN(CC)CCOc1ccccc1C(=O)CCc1ccccc1	0%
Cc1nnc(NS(=O)(=O)c2ccc(N)cc2)s1	7%&26%&-4%
CNC(=O)c1ccc(CSc2nc3ccncc3n2Cc2ccc(C)cc2)cc1	-6%
Nc1nccs1	-20%
CCC[C@H](N[C@@H](C)C(=O)N1[C@H](C(=O)O)C[C@@H]2CCCC[C@@H]21)C(=O)OCC	-15%
CCCSS/C(CCO)=C(/C)N(C=O)Cc1cnc(C)nc1N	25µM*
Cc1nc2c3ccccc3nc(NNC(=O)CCC(=O)N3CCN(c4ccccc4)CC3)n2n1	-17%&5%
O=C(O)COC(=O)Cc1ccccc1Nc1c(Cl)cccc1Cl	-20%&-4%
CCCn1ncc(CN2CCCC(C(=O)c3cccc(OC(C)C)c3)C2)c1C (configuration not stated)	-1%
CCCCCCCCO	-5%
Cc1c(C(=O)O)c(O)cc2c1C(=O)c1c(O)c([C@H]3O[C@H](CO)[C@@H](O)[C@H](O)[C@H]3O)c(O)c(O)c1C2=O	-19%&-11%
COc1cccc(CCc2ccccc2OCC(CN(C)C)OC(=O)CCC(=O)O)c1 (configuration not stated)	-5%
O=C1N(c2ccccc2)c2ccccc2C1(Cc1ccncc1)Cc1ccncc1	-8%&-13%&2%
C=CCSCC=C	4%
CCCCCCCC/C=C\CCCCCCCCN	6%
OC1(c2ccc(Cl)c(C(F)(F)F)c2)CCN(CCCC(c2ccc(F)cc2)c2ccc(F)cc2)CC1	-12%

Among those listed so far, these contain a thiophene ring, fused or not.
SMILES	VDR inh
Cc1nn(CC(=O)NCCc2ccccc2)c(=O)c2c1sc1ccccc12	19%
NC(=O)n1c(O)c(C(=O)c2cccs2)c2cc(Cl)ccc21	45µM*

New compounds follow.
SMILES	VDR inh
Cc1coc2c1C(=O)C(=O)c1c-2ccc2c1CCCC2(C)C	28µM*
CN(C)CCCN1c2ccccc2Sc2ccccc21	-7%&-14%&-1%&-4%
COc1ccc(C(=O)Nc2nc3ccccc3n2CCOc2ccc(Cl)cc2)cc1	6%
CCC(C)C(N)C(=O)O (configuration not stated)	0%
CN(C)CCCSc1ccccc1NC(=O)/C=C\c1ccccc1	-3%
CCCC(NC(C)C(=O)N1C(C(=O)O)CC2CCCCC21)C(=O)OCC (configuration not stated)	-3%
CC(=O)O[C@]1(C(C)=O)CC[C@H]2[C@@H]3C=C(Cl)C4=CC(=O)[C@@H]5C[C@@H]5[C@]4(C)[C@H]3CC[C@@]21C	u
Cc1onc(-c2ccccc2Cl)c1C(=O)NC1C(=O)N2C1SC(C)(C)C2C(=O)O (configuration not stated)	2%
CCCCC1CCC(CCCC(C)CCC(=O)O)CC1 (configuration not stated)	-8%
CC1(C)OC2CC3C4CC(F)C5=CC(=O)C=CC5(C)C4(F)C(O)CC3(C)C2(C(=O)CO)O1 (configuration not stated)	-1%
CC(=O)NCCCCCC(=O)O	0%
CN(C)C/C=C(/c1ccc(Br)cc1)c1cccnc1	-2%&2%&10%
C=CCN1C(=O)C(CC(C)C)NC1=S (configuration not stated)	2%&-5%
NS(=O)(=O)c1cc2c(cc1C(F)(F)F)N[C@H](Cc1ccccc1)NS2(=O)=O	-15%
O=C(Cn1ccnc1[N+](=O)[O-])NCCO	-4%&3%
CC(=O)N1C[C@H](O)C[C@H]1C(=O)O	-11%
COc1c(O)cc2c(c1O)C1OC(CO)C(O)C(O)C1OC2=O (configuration not stated)	8%
CC1=C(c2ccc(NN=C(C#N)C#N)cc2)NNC(=O)C1	20µM*
COc1ccc(NC(=O)Cn2ccn(-c3ccc(C)c(C)c3)c(=O)c2=O)cc1Cl	16%
CC(C)Cn1cnc2c1c(=O)n(C)c(=O)n2C	2%&-11%
CC[C@@H](C)C(N)C(=O)O (some centres not stated)	1%
Cc1nc2c3ccccc3nc(NNC(=O)CCC(=O)N3CCN(c4cc(Cl)ccc4C)CC3)n2n1	10%
CC(=O)[C@@H]1CC[C@@H]2[C@@H]3C[C@H](C)C4=CC(=O)CC[C@@]4(C)[C@H]3[C@H](O)C[C@]21C	-10%
COC(=O)c1cccnc1	u
N/C(=N\N=C\c1ccc(Cl)cc1)N/N=C/c1ccc(Cl)cc1	u
CCOc1ccc(S(=O)(=O)N2CCCCCC2)c2ccccc12	13%
